A1 apoptosis 2: compounds inhibiting A1, read as caspase activation; MEF A1-2A-BIM cells, caspase-Glo luminescence, 3 h; percent of clofoctol response, DMSO zero; caspase activation, % (test concentration not listed); 24,000 tested, under 10 active; in the data active = caspase activation above about 5.9%;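 note: wells of about 30 µL received 50 nL stock; the first replicate is given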
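system = A1-2A-BIM-expressing MEF cells | quantity = 2500 MEF cells/well | dosing = 50 nL compound per well, pinned | schedule = overnight cell settling, then 3 h compound exposure, 37 °C | signal = luminescence from DEVD-luciferin Caspase-Glo reagent, 1:1 in 50 mM HEPES, 1 h RT | read-out = Caspase-3/7 activation, seen as rise in luminescence signal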
Starred values were filed as active, the others as inactive. The list is partial. The share of hits here may be higher or lower than overall.

SMILES	A1 apoptosis 2
C[C@@H]1CN([C@@H](C)CO)C(=O)Cc2cc(NC(=O)CCC(F)(F)F)ccc2O[C@H]1CN(C)Cc1ccc2c(c1)OCO2	0.0
C[C@@H]1CCCCO[C@@H](CN(C)S(=O)(=O)c2ccc(F)cc2)[C@H](C)CN([C@@H](C)CO)C(=O)c2cc(NC(=O)c3ccncc3)ccc2O1	-1.2
C[C@@H]1CN([C@@H](C)CO)C(=O)c2cc(NS(=O)(=O)c3cn(C)cn3)ccc2O[C@@H]1CN(C)S(C)(=O)=O	0.5
C[C@@H]1CN([C@H](C)CO)C(=O)Cc2cc(NC(=O)NC3CCCCC3)ccc2O[C@@H]1CN(C)C(=O)Nc1ccc(F)cc1	-1.4
COc1ccc(CN(C)C[C@H]2Oc3c(NS(=O)(=O)c4cn(C)cn4)cccc3C(=O)N([C@@H](C)CO)C[C@@H]2C)cc1	-1.7
O=C(Nc1ccccc1[N+](=O)[O-])c1ccc(CNc2nccc(-c3cccnc3)n2)cc1	0.9
Cc1ccc(S(=O)(=O)N(C)C[C@@H]2Oc3ccc(NS(=O)(=O)c4ccc(F)cc4)cc3CC(=O)N([C@H](C)CO)C[C@H]2C)cc1	1.9
C[C@H](CO)N1C[C@H](C)[C@@H](CN(C)Cc2ccccc2)Oc2ccc(N(C)C)cc2C1=O	0.3
C[C@@H]1CN([C@H](C)CO)C(=O)c2cccc(NC(=O)Nc3ccc(C(F)(F)F)cc3)c2O[C@H]1CN(C)C(=O)Nc1cccc2ccccc12	-0.5
C[C@@H]1CN([C@@H](C)CO)C(=O)c2cc(NC(=O)c3ccccc3)ccc2O[C@@H](C)CCCCO[C@H]1CN(C)C(=O)NC1CCCCC1	0.4
COc1ccc(S(=O)(=O)Nc2ccc3c(c2)C(=O)N([C@H](C)CO)C[C@@H](C)[C@@H](CN(C)Cc2ccc4c(c2)OCO4)OCCCC[C@@H](C)O3)cc1	1.5
C[C@@H]1CN([C@@H](C)CO)C(=O)c2cc(NC(=O)Cn3cnnn3)ccc2O[C@@H]1CN(C)S(=O)(=O)c1cccs1	-0.7
COc1ccccc1NC(=O)N(C)C[C@H]1OCc2cnnn2CCCC(=O)N([C@@H](C)CO)C[C@@H]1C	0.6
C[C@H]1CN([C@@H](C)CO)C(=O)Cc2cc(NC(=O)C3CC3)ccc2O[C@H]1CN(C)Cc1ccc(Cl)c(Cl)c1	-0.6
C[C@H](CO)N1C[C@H](C)[C@@H](CN(C)C(=O)Nc2cccc3ccccc23)Oc2c(NC(=O)C3CCOCC3)cccc2C1=O	1.9
CC(C)NC(=O)Nc1ccc2c(c1)C(=O)N([C@@H](C)CO)C[C@@H](C)[C@H](CN(C)S(=O)(=O)c1cccs1)OCCCC[C@H](C)O2	0.7
CC(C)NC(=O)Nc1ccc2c(c1)CC(=O)N([C@@H](C)CO)C[C@@H](C)[C@@H](CN(C)S(=O)(=O)c1ccc(Cl)cc1)O2	-0.6
CC(C)NC(=O)Nc1ccc2c(c1)CC(=O)N([C@H](C)CO)C[C@H](C)[C@@H](CN(C)S(=O)(=O)c1ccc(Cl)cc1)O2	-0.7
C[C@H](CO)N1C[C@H](C)[C@@H](CN(C)Cc2ccc(-c3ccccc3)cc2)Oc2ccc(NC(=O)CCN3CCOCC3)cc2C1=O	-0.8
COc1ccc(S(=O)(=O)Nc2ccc3c(c2)CC(=O)N([C@@H](C)CO)C[C@H](C)[C@H](CN(C)S(C)(=O)=O)O3)cc1	0.4
C[C@H](CO)N1C[C@H](C)[C@H](CN(C)C(=O)Nc2ccc3c(c2)OCO3)Oc2ccc(NC(=O)c3ccncc3)cc2C1=O	-0.5
COc1ccc(CN(C)C[C@H]2Oc3ccc(NS(=O)(=O)c4ccc(Cl)cc4)cc3CC(=O)N([C@@H](C)CO)C[C@H]2C)cc1	-0.8
COc1ccc(NC(=O)Nc2ccc3c(c2)C(=O)N([C@@H](C)CO)C[C@@H](C)[C@@H](CN(C)C(=O)Nc2cccc4ccccc24)OCCCC[C@H](C)O3)cc1	-0.4
C=CCOC(=O)C1=C[C@H](c2coc3ccccc3c2=O)C[C@H](OCc2ccc(CO)cc2)O1	0.1
CNC[C@H]1Oc2ccc(NS(=O)(=O)c3ccc(Cl)cc3)cc2CC(=O)N([C@H](C)CO)C[C@H]1C	0.7
O=C(NO)c1ccc(C(=O)N/N=C/c2cccnc2Br)cc1	-0.5
C[C@H]1CCCCO[C@H](CN(C)C(=O)Cc2ccccc2)[C@@H](C)CN([C@@H](C)CO)C(=O)c2cc(NC(=O)Nc3ccc(F)cc3)ccc2O1	-0.3
COc1ccc(NC(=O)Nc2ccc3c(c2)C(=O)N([C@H](C)CO)C[C@H](C)[C@@H](CN(C)Cc2ccc(C(=O)O)cc2)O3)cc1	-0.2
C[C@H](CO)N1C[C@H](C)[C@@H](CN(C)C(=O)C2CCCCC2)OCCCC[C@H](C)Oc2ccc(NC(=O)C3CCCCC3)cc2C1=O	-0.1
C[C@H]1CN([C@@H](C)CO)C(=O)c2cc(NC(=O)NC3CCCCC3)ccc2O[C@H]1CN(C)C(=O)Nc1cccc2ccccc12	0.4

Three compounds out of the list, sorted by molecular weight, falling.
SMILES	A1 apoptosis 2
COc1ccc(S(=O)(=O)Nc2ccc3c(c2)C(=O)N([C@H](C)CO)C[C@@H](C)[C@@H](CN(C)Cc2ccc4c(c2)OCO4)OCCCC[C@@H](C)O3)cc1	1.5
C[C@H](CO)N1C[C@H](C)[C@@H](CN(C)C(=O)Nc2cccc3ccccc23)Oc2c(NC(=O)C3CCOCC3)cccc2C1=O	1.9
COc1ccccc1NC(=O)N(C)C[C@H]1OCc2cnnn2CCCC(=O)N([C@@H](C)CO)C[C@@H]1C	0.6

Reprinted from the results shown (3 entries):
SMILES	A1 apoptosis 2
COc1ccc(NC(=O)Nc2ccc3c(c2)C(=O)N([C@H](C)CO)C[C@H](C)[C@@H](CN(C)Cc2ccc(C(=O)O)cc2)O3)cc1	-0.2
C[C@H](CO)N1C[C@H](C)[C@@H](CN(C)C(=O)C2CCCCC2)OCCCC[C@H](C)Oc2ccc(NC(=O)C3CCCCC3)cc2C1=O	-0.1
C[C@H]1CN([C@@H](C)CO)C(=O)c2cc(NC(=O)NC3CCCCC3)ccc2O[C@H]1CN(C)C(=O)Nc1cccc2ccccc12	0.4

Carrying on.
SMILES	A1 apoptosis 2
C[C@@H]1CCCCO[C@@H](CN(C)Cc2ccc(C(F)(F)F)cc2)[C@H](C)CN([C@@H](C)CO)C(=O)c2cc(NC(=O)c3ccccc3)ccc2O1	0.5
C[C@H](CO)N1C[C@H](C)[C@H](CN(C)C(=O)c2ccncc2)OCCCC[C@H](C)Oc2ccc(NS(=O)(=O)c3cccs3)cc2C1=O	-2.0
C[C@@H]1CN([C@@H](C)CO)C(=O)c2cccc(NC(=O)c3ccncc3)c2O[C@H]1CN(C)S(=O)(=O)c1cccs1	-0.9
CNC[C@@H]1OCCCC[C@H](C)Oc2ccc(NC(=O)NC(C)C)cc2C(=O)N([C@H](C)CO)C[C@H]1C	-0.6
Cc1ccc(S(=O)(=O)Nc2ccc3c(c2)CC(=O)N([C@@H](C)CO)C[C@@H](C)[C@H](CN(C)Cc2ccncc2)O3)cc1	-0.1
CC(C)NC(=O)Nc1ccc2c(c1)CC(=O)N([C@H](C)CO)C[C@H](C)[C@H](CN(C)C)O2	0.5
Cc1noc(C)c1NC(=O)Nc1ccc2c(c1)C(=O)N([C@H](C)CO)C[C@H](C)[C@@H](CN(C)S(=O)(=O)c1ccc(Cl)cc1)OCCCC[C@H](C)O2	0.7
Cc1noc(C)c1NC(=O)Nc1ccc2c(c1)CC(=O)N([C@@H](C)CO)C[C@H](C)[C@H](CN(C)S(=O)(=O)c1cccs1)O2	0.8
C[C@H](CO)N1C[C@H](C)[C@@H](CN(C)Cc2ccncc2)Oc2c(cccc2N(C)C)C1=O	-0.5
Cc1noc(C)c1NC(=O)N(C)C[C@@H]1OCCCC[C@H](C)Oc2ccc(NC(=O)NC3CCCCC3)cc2C(=O)N([C@H](C)CO)C[C@H]1C	-1.2
C[C@@H]1CN([C@H](C)CO)C(=O)c2cccc(NC(=O)c3ccncc3)c2O[C@@H]1CN(C)C(=O)Nc1ccccc1	1.0
C[C@@H]1CN([C@H](C)CO)C(=O)c2cc(NC(=O)Nc3ccc(C(F)(F)F)cc3)ccc2O[C@@H]1CN(C)Cc1ccc(C(=O)O)cc1	2.0
C[C@@H]1CCCCO[C@H](CN(C)C(=O)Nc2ccc(F)cc2)[C@H](C)CN([C@@H](C)CO)C(=O)c2cc(NC(=O)NC3CCCCC3)ccc2O1	0.5
C[C@@H]1CCCCO[C@@H](CN(C)S(=O)(=O)c2cccs2)[C@H](C)CN([C@@H](C)CO)C(=O)c2cc(NC(=O)C3CCCCC3)ccc2O1	0.5
C[C@@H]1CCCCO[C@@H](CN(C)S(=O)(=O)c2ccccc2)[C@@H](C)CN([C@@H](C)CO)C(=O)c2cc(NC(=O)c3ccccc3)ccc2O1	0.7
C[C@@H]1CN([C@H](C)CO)C(=O)c2cc(NC(=O)Nc3ccc4c(c3)OCO4)ccc2O[C@@H]1CN(C)Cc1ccc(C(F)(F)F)cc1	-0.5
COc1ccc(NC(=O)N(C)C[C@H]2OCc3cn(nn3)CCCC(=O)N([C@@H](C)CO)C[C@H]2C)c(OC)c1	-0.1
C[C@H]1CN([C@@H](C)CO)C(=O)c2cccc(N(C)C)c2O[C@@H]1CN(C)Cc1ccc(C(=O)Nc2ccccc2N)cc1	-0.1
C[C@H]1CN([C@@H](C)CO)C(=O)Cc2cc(NS(=O)(=O)c3ccccc3)ccc2O[C@H]1CN(C)Cc1ccc(Cl)c(Cl)c1	-0.5
Cc1ccc(S(=O)(=O)N(C)C[C@H]2Oc3ccc(NC(=O)C4CCCCC4)cc3C(=O)N([C@H](C)CO)C[C@@H]2C)cc1	0.7
Cc1ccc(S(=O)(=O)Nc2ccc3c(c2)CC(=O)N([C@H](C)CO)C[C@@H](C)[C@@H](CN(C)S(=O)(=O)c2cccs2)O3)cc1	-0.2
COc1ccc(NC(=O)Nc2ccc3c(c2)CC(=O)N([C@@H](C)CO)C[C@@H](C)[C@H](CN(C)S(=O)(=O)c2cccs2)O3)cc1	-0.6
C[C@@H]1CN([C@H](C)CO)C(=O)Cc2cc(NC(=O)c3ccncc3)ccc2O[C@@H]1CN(C)C(=O)NC1CCCCC1	-0.1
Cc1noc(C)c1NC(=O)Nc1ccc2c(c1)C(=O)N([C@@H](C)CO)C[C@@H](C)[C@@H](CN(C)C(=O)Nc1ccc(F)cc1)OCCCC[C@@H](C)O2	-0.8
OC(CSc1nc2ccccc2s1)CC(O)c1ccccc1 (stereo unspecified)	0.4
COc1ccc(NC(=O)N(C)C[C@@H]2Oc3ccc(NC(=O)c4ccncc4)cc3C(=O)N([C@H](C)CO)C[C@H]2C)cc1	-0.1
C[C@@H]1CN([C@@H](C)CO)C(=O)c2cc(NS(C)(=O)=O)ccc2O[C@@H]1CN(C)C(=O)Nc1ccc(C(F)(F)F)cc1	0.1
C[C@H](CO)N1C[C@H](C)[C@@H](CN(C)C(=O)Nc2ccccc2)Oc2ccc(NS(C)(=O)=O)cc2C1=O	0.4
C=CCN1Cc2ccccc2[C@@H]2OC(c3ccc(OCCCO)cc3)=N[C@]2(CCC(=O)OC(C)(C)C)C1=O	-0.2
O=C(N/N=C/c1ccc(O)c(F)c1)c1ccccn1	-13

Additional structures follow:
SMILES	A1 apoptosis 2
C[C@H](CO)N1C[C@H](C)[C@H](CN(C)S(=O)(=O)c2ccc(C#N)cc2)OCc2cnnn2CCCC1=O	-0.5
COc1ccc(S(=O)(=O)Nc2ccc3c(c2)CC(=O)N([C@H](C)CO)C[C@H](C)[C@H](CN(C)S(=O)(=O)c2cn(C)cn2)O3)cc1	1.0
Cc1noc(C)c1S(=O)(=O)Nc1cccc2c1O[C@@H](CN(C)S(=O)(=O)c1ccc(F)cc1)[C@@H](C)CN([C@@H](C)CO)C2=O	-1.6
C[C@@H]1CN([C@H](C)CO)C(=O)c2cc(NC(=O)C3CCCCC3)ccc2O[C@H]1CN(C)Cc1ccccc1	-0.8
CC(C)NC(=O)N(C)C[C@@H]1Oc2ccc(NS(=O)(=O)c3cn(C)cn3)cc2CC(=O)N([C@H](C)CO)C[C@H]1C	-0.6
Cc1noc(C)c1S(=O)(=O)N(C)C[C@@H]1OCCCC[C@H](C)Oc2ccc(NC(=O)NC(C)C)cc2C(=O)N([C@H](C)CO)C[C@H]1C	1.0
O=C(CCCCCC(=O)Nc1ccccc1O)N/N=C/c1cccc(O)c1	2.1
NC(=O)C1CCCN(/[N+]([O-])=N/OCCBr)C1 (stereo unspecified)	0.2
COCCOC(=O)N1C(=O)[C@@]2(c3ccccc31)[C@H](c1ccc(O)cc1)N1[C@H](c3ccccc3)[C@H](c3ccccc3)OC(=O)[C@H]1[C@@H]2C(N)=O	-0.5
COc1ccc(NC(=O)Nc2ccc3c(c2)C(=O)N([C@@H](C)CO)C[C@@H](C)[C@@H](CN(C)S(=O)(=O)c2cn(C)cn2)OCCCC[C@@H](C)O3)cc1	1.0
Cc1ccc(S(=O)(=O)N(C)C[C@H]2Oc3ccc(NS(=O)(=O)c4ccc(F)cc4)cc3CC(=O)N([C@H](C)CO)C[C@@H]2C)cc1	-0.8
C[C@@H]1CN([C@H](C)CO)C(=O)c2cccc(NC(=O)C3CCOCC3)c2O[C@H]1CN(C)C(=O)Nc1ccc(F)cc1	-0.8
C=CC[C@@]1(C(=O)N2CCOCC2)N=C(c2ccc(OCCCO)cc2)O[C@@H]1c1ccccc1	0.6
